Cruzain inh Det: qHTS Assay for Promiscuous and Specific Inhibitors of Cruzain (with detergent). Cruzipain (Trypanosoma cruzi), P25779. purified cruzain, Z-FR-AMC fluorescence, 0.01% Triton. Potency, µM, for inactives: max response, negative = inhibition, most hits filed as inhibitors. hit rate 0.43% among 200,000. AID 1478, 2009;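 note: plate controls were neutral wells for no effect and buffer without enzyme for full effect; nearly all actives have a fitted effect of over 40% in size; top concentration of the series not given in the record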
Target sequence (P25779 123-467 limits assumed): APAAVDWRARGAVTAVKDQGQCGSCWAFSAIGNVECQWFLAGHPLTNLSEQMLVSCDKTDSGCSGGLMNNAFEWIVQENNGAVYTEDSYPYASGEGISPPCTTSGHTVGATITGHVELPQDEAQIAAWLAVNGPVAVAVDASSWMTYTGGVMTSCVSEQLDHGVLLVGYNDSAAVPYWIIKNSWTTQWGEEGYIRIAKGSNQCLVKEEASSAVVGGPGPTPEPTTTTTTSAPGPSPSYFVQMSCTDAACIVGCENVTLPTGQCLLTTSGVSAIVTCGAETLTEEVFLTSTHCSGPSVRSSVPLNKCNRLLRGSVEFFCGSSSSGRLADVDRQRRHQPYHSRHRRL
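Purified cruzain (1.5 nM final) was preincubated with compounds for 15 min at room temperature in 100 mM sodium acetate pH 5.5, 5 mM DTT, 0.01% Triton X-100. Reaction started with 2 uM Z-FR-AMC; AMC fluorescence change over 60 s gave activity.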
Cruzain inh noDet: qHTS Assay for Promiscuous and Specific Inhibitors of Cruzain (without detergent); Cruzipain (Trypanosoma cruzi), P25779; purified cruzain, Z-FR-AMC fluorescence, no detergent; Potency, µM, for the others: max response, negative = inhibition, most hits filed as inhibitors; hit rate 2.3% among 200,000;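 note: plate controls were enzyme without inhibitor for no effect and buffer without enzyme for full effect; nearly all actives have a fitted effect of over 40% in size; top concentration of the series not given in the record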
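Detergent-free condition (0.00005% Triton X-100) in acetate buffer pH 5.5 with DTT. 1.5 nM enzyme and compound were pre-mixed 15 min, then 2 uM Z-FR-AMC substrate added; reaction progress from fluorescence change between first and third reads (60 s).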
2A StopGo: High Throughput Screening for Foot and Mouth Disease Virus Antivirals. human cells with a luciferase reporter of 2A StopGo recoding; control for the full effect not named in the record. Potency, µM (series often up to 57.9 µM), without a hit: at the highest dose signal change, negative = less light. hit rate 1.2% among 410,000. AID 1159524, 2015; active = well fitted falling curve with a large enough effect; inconclusive = small, poorly fitted or top-dose-only effect; inactive = no such curve, though single readings can be large or run the other way; tested in HEK293T cells; note: nearly all actives have a fitted effect of over 45% in size; luciferase light after 4 h
Numbers without * were called inactive; ? = inconclusive; & = joins results of further samples; [ ] = another dose, or the depositor's remark. Unless noted, calls come from the whole dose curve; as a rule, active = well fitted curve in the direction sought with a large enough effect; inconclusive = small, poorly fitted or top-dose-only effect, or another doubt; inactive = no such curve, though single readings can be large; an effect the other way counts as inactive or inconclusive. Unless noted, % is set by controls: 0 for no effect and ±100 for the full control effect; potency is the fitted concentration of half-maximal effect. The list is partial; count on the stated rates, not on these rows.

SMILES	Cruzain inh Det	Cruzain inh noDet	2A StopGo
COCCNc1cc(-c2ccccc2C)ncn1	-4.4%	4.4%	1.7%
COC1=CC(C)C2CC3OC(=O)CC4C(C)=C(OC)C(=O)C([C@]2(C)C1=O)[C@]34C (stereo partly drawn)	2.8%	3.2%	2.6%
COC(=O)N1CCC2(CCCN(Cc3ccccc3)C2)CC1	-0.2%	0.1%	-11.0%
CS(=O)(=O)N1CCC[C@@]2(CCN(C(=O)Nc3cccc(F)c3)C2)C1	-3.2%	-0.2%	-9.5%
O=C(c1ccncc1)N1CCC2(CCCN(c3ccc(-c4ccccc4)cc3)C2)CC1	-7.4%	?	-25.6%
O=C(Oc1ccccc1)N1CCC2(CCCN(c3ccncc3)C2)CC1	0.2%	-6.2%	-17.8%
O=C(Oc1ccccc1)N1CCC[C@@]2(CCN(C(c3ccccc3)c3ccccc3)C2)C1	0.3%	-1.5%	0.3%
CCNc1ncc2nc(-c3cccs3)c(=O)n(Cc3ccc(F)cc3)c2n1	0.1%	-27.2%	1.8%
COC(=O)N1CCC2(CCCN(C)C2)CC1	-6.6%	-7.7%	1.5%
COc1ccc(Oc2ncc3nc(-c4ccccc4)c(=O)n(C4CC4)c3n2)cc1	-2.4%	-5.2%	-16.8%
c1csc(CN2CCCC3(CCNCC3)C2)n1	7.0%	-9.7%	-8.7%
COc1ccc(C(=O)Oc2ccc3c(-c4ccc(OC)cc4)cc(=O)oc3c2)cc1	1.1%	5.2%	-20.0%
O=C(c1ccncc1)N1CCC[C@@]2(CCN(c3ncccn3)C2)C1	-0.2%	-1.0%	-9.6%
CC(=O)OC1CC2C(C)(C)C(=O)CC[C@]2(C)C2CC[C@]3(C)C(=CC(=O)OC3c3ccoc3)[C@]12C (stereo partly drawn)	-1.0%	26.0%	-5.4%
CC1(C)C(O)CC(O)[C@]2(C)C1CC(O)[C@]1(C)C2CC[C@@]2(C)C(c3ccoc3)CC3OC312 (stereo partly drawn)	5.6%	?	0.0%
COCC(=O)N1CCC2(CCN(Cc3ccccc3OC)CC2)CC1	0.2%	1.9%	-10.9%
Clc1ccccc1-c1cc(NCc2ccccc2)ncn1	-12.0%	2.8%	16.4%
Fc1ccc(-c2nc3n(c2-c2ccncc2)CCS3)cc1	-5.8%	3.4%	?
CC(C)NC(=O)N1CC[C@@]2(CCCN(C(=O)c3ccco3)C2)C1	2.9%	9.4%	0.9%
O=C(c1ccncc1)N1CCC2(CC1)CCN(c1ccncc1)CC2	5.2%	-5.9%	-13.1%
CN(C)c1ncc2nc(-c3ccccc3)c(=O)n(C3CC3)c2n1	-0.7%	0.3%	8.6%
N[C@@]1(C(=O)O)CN[C@H](C(=O)O)C1	-2.0%	5.6%	-11.5%
CN1CCN(c2cc(-c3ccoc3)ncn2)CC1	2.3%	2.4%	-11.7%
COc1ccc2[nH]cc(C3=CCNCC3)c2c1	-5.9%	-3.2%	?
COc1cccc(-c2cc(NCc3ccccc3)ncn2)c1	-2.5%	-4.3%	32.7%[activator]

Carrying on:
SMILES	Cruzain inh Det	Cruzain inh noDet	2A StopGo
O=C(Oc1ccccc1)N1CCC2(CC1)CCN(c1ccccc1)CC2	-5.3%	-1.8%	-6.9%
COc1ccc(NC(=O)N2CC3(CCN(C(=O)c4cc(C(F)(F)F)cc(C(F)(F)F)c4)CC3)C2)cc1	2.1%	1.5%	-13.2%
N#CCCn1c(=O)c(CCc2ccccc2)nc2cnc(Oc3ccccc3)nc21	-2.5%	-7.6%	5.2%
Cn1c(=O)c(-c2ccc(Cl)cc2)nc2cnc(Oc3ccccc3)nc21	4.1%	0.4%	-5.9%
CSCCC(N)C(=O)NC(CC(C)C)C(=O)NC(Cc1ccccc1)C(=O)O (stereo not drawn)	1.6%	-1.4%	0.4%
COCCNc1ccnc(-c2ccccc2C(F)(F)F)n1	11.1%	13.4%	5.2%
Cc1cccc(CNc2ncncc2-c2cccnc2)c1	4.9%	-2.1%	-2.1%
C#CCCCCCCCCCCCC(=O)CC(O)COC(C)=O (stereo not drawn)	-0.3%	6.5%	-6.1%
COCCNc1ncnc2ccc(-c3ccccc3C)cc12	1.6%	8.1%	?
Clc1cccc(C=NC=Nc2cccc(Cl)c2)c1	0.7%	3.0%	4.9%
CN(C)c1ccc(-c2ccc3ncnc(N(C)C)c3c2)cc1	-13.8%	-8.4%	-31.8%
CC(=O)OC1CC(OC(C)=O)[C@]2(C)C(CC(OC(C)=O)[C@@]3(C)C4=CC(=O)OC(c5ccoc5)[C@]4(C)CCC32)C1(C)C (stereo partly drawn)	0.8%	?	5.6%
O=C(c1csnn1)N1CCC2(CCN(Cc3cc(C(F)(F)F)cc(C(F)(F)F)c3)CC2)CC1	3.9%	-5.3%	-12.0%
OC[C@H]1NC[C@@H](O)[C@@H](O)[C@H]1O	-1.1%	-4.2%	-13.7%
N#CCCn1c(=O)c(-c2ccc(F)cc2)nc2cnc(N3CCNCC3)nc21	?	-11.0%	-19.4%
Cc1c(CC(C)(C)C(=O)O)n(Cc2ccc(Cl)cc2)c2ccc(F)cc12	-22.0%	-13.9%	-15.2%
COC(=O)c1c(OC)cc2c(c1C)Oc1c(Cl)c(OC(C)=O)c(Cl)c(C)c1C(=O)O2	-11.3%	-8.8%	-16.4%
COc1ccc(NC(=O)N2CCCC3(CCN(C(=O)c4cnccn4)CC3)C2)cc1	-2.5%	-11.9%	-8.2%
COc1c2ccoc2nc2c(OC)c(O[C@@H]3O[C@H](C)[C@@H](O)[C@@H](O)[C@H]3O)ccc12	-0.7%	-2.4%	-14.1%
CS(=O)(=O)c1ccc(-c2cc(Br)sc2-c2ccc(F)cc2)cc1	-6.3%	4.8%	-6.0%
CN(C)c1ncc2nc(-c3ccc(F)cc3)c(=O)n(Cc3cccs3)c2n1	-2.1%	7.1%	-3.6%
CN1Cc2ccccc2[C@@H]2c3cccc4[nH]cc(c34)C[C@H]21	-7.5%	-5.7%	-15.6%&-26.8%
Cc1cccc(CNc2ccnc(-c3cccc(C#N)c3)n2)c1	-6.7%	22.5%	-16.4%
Cn1cccc1C(=O)N1CCC2(CC1)CN(c1cccc(-c3ccccc3)c1)C2	-4.1%	?	-26.7%
O=c1c(-c2ccc(Cl)cc2)nc2cncnc2n1Cc1ccccc1Cl	3.6%	-12.3%	0.5%

Continuation:
SMILES	Cruzain inh Det	Cruzain inh noDet	2A StopGo
C=C(C)C1COc2cc3oc(=O)ccc3cc2O1 (stereo not drawn)	-1.0%	9.4%	37.6%[activator]
Fc1ccc(Nc2ccnc(-c3ccccc3C(F)(F)F)n2)cc1	-4.5%	9.3%	-2.9%
COCCn1c(=O)c(-c2ccc(F)cc2)nc2cnc(Oc3ccccc3)nc21	-6.8%	-15.2%	-11.2%
O=C(c1cnccn1)N1CCC[C@@]2(CCN(Cc3ccncc3)C2)C1	0.8%	-1.7%	4.2%
Cc1cnc(CNc2ncnc3ccc(-c4ccccc4CN(C)C)cc23)cn1	2.2%	-4.9%	-14.3%
Nc1nc(NCCc2ccc(O)cc2)nc2nc(-c3ccco3)nn12	-2.1%	0.3%	37.6%&39.0%[activator]
N#CCCn1c(=O)c(-c2ccccc2)nc2cnc(Nc3ccccc3)nc21	1.4%	-6.8%	-1.8%
Cn1c(=O)c(-c2ccc(F)cc2)nc2cnc(Oc3ccccc3)nc21	4.7%	-1.2%	-10.4%
CC[N+](CC)(CCNC(=O)C(=O)NCC[N+](CC)(CC)Cc1ccccc1Cl)Cc1ccccc1Cl	-1.7%	-2.1%	0.2%
O=S(=O)(c1ccccc1)N1CCC2(CC1)CN(c1ccccc1)C2	2.7%	?	-23.7%
COc1ccc(CNc2nc(-c3ccoc3)nc3ccccc23)c(OC)c1	-7.8%	15.8µM*	12.2%
C=CC(C1=CC(=O)C(OC)=C(OC)C1=O)c1ccccc1 (stereo not drawn)	0.4%	13.4%	25.1µM*
COc1ccc(C(=O)N2CCC3(CCCN(c4ccncc4)C3)CC2)cc1	-0.1%	1.7%	-2.9%
CN1C(=O)C(Cc2c[nH]c3ccccc23)NC1=S (stereo not drawn)	-23.5%	-38.2%	18.8%
COCCNc1ncnc2ccc(-c3ccoc3)cc12	-5.8%	-23.3%	-9.6%
O=S(=O)(NCCCCCCc1ccccc1)c1cccc2c(Cl)cccc12	0.8%	?	49.4%[activator]
O=C(c1ccncc1)N1CCC2(CCCN(c3ccccc3)C2)CC1	2.3%	11.2%	-0.7%
CN(C)C(=O)c1ccc(-c2ccc3ncnc(NCCN4CCOCC4)c3c2)cc1	2.0%	-8.9%	13.9%
c1nc(NC2CCNCC2)c2cc(-c3ccoc3)ccc2n1	1.0%	-13.5%	-10.6%
COc1cc(OC)c2c(c1Cl)OC1(C2=O)C(O)=CC(=O)CC1C (stereo not drawn)	3.3%	-2.2%	-10.0%
C=CC(C)(O)CC1[C@@]2(C)CCCC(C)(C)C2CC[C@]1(C)O (stereo partly drawn)	-4.9%	?	-10.7%
COc1ccc2cnoc(=O)c2c1OC	-7.8%	-20.5%	-2.9%
CC1CCCC(=O)CCC/C=C/c2cc(O)cc(O)c2C(=O)O1 (stereo not drawn)	-2.4%	-11.0%	-21.0%
COc1ccc(C(=O)N2CCC3(CC2)CN(C(=O)NC(C)C)C3)cc1	1.9%	4.6%	-2.1%
COc1cccc(-c2ccc3ncnc(NCc4cnc(C)cn4)c3c2)c1	-3.2%	1.0%	-23.0%

Compound profiles, from the list above. Values in the order: Cruzain inh Det | Cruzain inh noDet | 2A StopGo
COc1cc(OC)c2c(c1Cl)OC1(C2=O)C(O)=CC(=O)CC1C (stereo not drawn) as listed: 3.3% | -2.2% | -10.0%
c1nc(NC2CCNCC2)c2cc(-c3ccoc3)ccc2n1 as listed: 1.0% | -13.5% | -10.6%

Going on with the list:
SMILES	Cruzain inh Det	Cruzain inh noDet	2A StopGo
CCCCCCCCCCCCC/C=C\[C@@H](O)[C@H](CO)NC(C)=O	0.1%	?	5.0%
Cc1nc2cnc(Oc3ccccc3)nc2n(CCc2ccccc2)c1=O	3.9%	-7.7%	-19.3%
COc1cccc(Nc2ncc3nc(C)c(=O)n(CCc4ccccc4)c3n2)c1	-7.8%	21.3%	-20.5%
CCCn1c(=O)[nH]c2nc(-c3ccc(S(=O)(=O)O)cc3)[nH]c2c1=O	-20.7%	?	-0.3%
CN(C)C(=O)c1ccc(-c2nc(NCc3cccnc3)c3ccccc3n2)cc1	-1.8%	6.0%	72.3%[activator]
N#Cc1cccc(-c2cncnc2NCc2ccccc2)c1	3.3%	1.0%	-3.8%
c1cc(CN2CCCC3(CCNCC3)C2)ccn1	-0.4%	-4.1%	-0.8%
COc1cc(OC)c2c(=O)c(-c3ccc4c(c3)OCO4)coc2c1	3.1%	-8.8%	35.4%[activator]
O[C@H](CCCN1CCN(c2ncc(F)cn2)CC1)c1ccc(F)cc1	-1.7%	-0.7%	-17.5%
CC(C)CN1CCC2(CC1)CCN(C(=O)Oc1ccccc1)CC2	6.6%	-3.1%	-14.9%
O=C(c1cnccn1)N1CCC2(CC1)CN(Cc1nccs1)C2	-0.3%	-2.8%	0.8%
CCNc1ncc2nc(CCc3ccccc3)c(=O)n(C3CC3)c2n1	-2.4%	0.4%	31.2%[activator]
COc1ccc(OC)c2c(=S)c3ccccc3[nH]c12	-16.1%	-5.9%	8.5%
COC(=O)Nc1nc2ccc(C(=O)c3ccccc3)cc2[nH]1	-6.9%&-3.1%	2.9%&17.1%	29.2%
Cc1noc(C)c1-c1ccc2ncnc(N3CCOCC3)c2c1	-3.1%	-4.4%	20.3%
CN(C)c1ccc(-c2cc(-n3ccnc3)ncn2)cc1	-0.8%	3.5%	30.5%[activator]
O=c1c(-c2ccccc2)nc2cncnc2n1C1CC1	-1.5%	0.3%	-15.0%
COC(C)(C)CCCC(C)C/C=C/C(C)=C/C(=O)O (stereo not drawn)	-4.4%	2.8%	-17.6%
CC(=O)OC1CC2C(C)(C)C(=O)C=C[C@]2(C)C2CC[C@]3(C)C(=CC(=O)OC3c3ccoc3)[C@]12C (stereo partly drawn)	-1.9%	?	25.1µM*
CC(=O)N1CCC2(CC1)CN(c1ccncc1)C2	1.6%	-2.2%	-5.4%
COc1ccccc1CN1CC2(CCN(C(=O)c3cnccn3)CC2)C1	0.8%	-0.8%	-15.8%
O=C(c1csnn1)N1CCC2(CC1)CN(c1cccc(-c3ccccc3)c1)C2	-1.4%	?	?
O=c1c(-c2ccc(F)cc2)nc2cncnc2n1Cc1ccccc1	2.0%	-1.7%	-11.4%
CN(C)C(=O)c1ccc(-c2cncnc2-n2ccnc2)cc1	0.9%	2.9%	-11.8%
COc1cccc(Cn2c(=O)c(-c3cn(C)c4ccccc34)nc3cnc(OC)nc32)c1	-0.8%	-3.4%	-9.4%
